Screening results from PubChem.
Yeast UUG start: modulators of start codon recognition fidelity in yeast | S. cerevisiae UUG-firefly luciferase reporter, luminescence/redox ratio | activity score, % at 18.7 µM | 0.13% of 350,000 active;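 active means replicate mean at a twofold rise or more, about +100% in these data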;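 further: firefly luciferase made from a UUG start codon reports start codon fidelity; reporter light over untreated wells divided by growth signal over untreated wells; some hits fall short of that in this replicate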
* hit, by the source's call. This is a subset. The share of hits here may be higher or lower than overall.

SMILES	Yeast UUG start
Cc1ccc(S(=O)(=O)Nc2cccc3c2O[C@@H](CN(C)C(=O)Nc2ccc4c(c2)OCO4)[C@H](C)CN([C@H](C)CO)C3=O)cc1	4.7
CCC(=O)N1CCCCN2[C@H](CO)[C@@H](c3ccc(C#Cc4ccccc4F)cc3)[C@H]2C1	-11.2
COc1ccc(C(=O)Nc2ccc3c(c2)OC[C@@H](C)N(C(C)=O)C[C@H](C)[C@@H](OC)CN(C)C3=O)cc1	13.2
COc1ccc(CN(C)C[C@H]2Oc3ccc(NS(=O)(=O)c4cn(C)cn4)cc3CC(=O)N([C@@H](C)CO)C[C@@H]2C)cc1	11.7
CO[C@@H]1CN(C)C(=O)c2cc(NC(=O)C3CC3)ccc2OC[C@@H](C)N(Cc2nccs2)C[C@@H]1C	-2.9
C[C@H](CO)N1C[C@H](C)[C@H](CN(C)Cc2ccc(-c3ccccc3)cc2)Oc2ccc(N(C)C)cc2C1=O	-9.9
C[C@@H]1CN([C@H](C)CO)C(=O)c2cccc(NC(=O)Nc3ccc(F)cc3)c2O[C@@H]1CN(C)Cc1ccc(Cl)c(Cl)c1	9.3
C[C@@H]1CN([C@@H](C)CO)C(=O)c2cccc(NC(=O)c3ccncc3)c2O[C@H]1CN(C)Cc1ccc(Oc2ccccc2)cc1	0.3
CC(C)NC(=O)N(C)C[C@@H]1Oc2c(NS(=O)(=O)c3ccccc3)cccc2C(=O)N([C@@H](C)CO)C[C@H]1C	-2.8
C[C@@H]1CN([C@@H](C)CO)C(=O)Cc2cc(NC(=O)Nc3ccc(F)cc3)ccc2O[C@H]1CN(C)S(C)(=O)=O	7.2
C[C@@H]1CN([C@H](C)CO)C(=O)c2cccc(NS(C)(=O)=O)c2O[C@H]1CN(C)S(=O)(=O)c1cccs1	-5.2
C[C@@H]1CN([C@H](C)CO)C(=O)Cc2cc(NS(=O)(=O)c3ccccc3)ccc2O[C@@H]1CN(C)CC1CC1	1.8
C[C@@H]1CN([C@@H](C)CO)C(=O)c2cc(NC(=O)Cc3ccccc3)ccc2O[C@H]1CN(C)S(=O)(=O)c1cn(C)cn1	-13.1
CC=Cc1ccc2n(c1=O)C[C@H]1[C@H](CO)[C@@H](C(=O)N3CCCCC3)N(CC3CC3)[C@@H]21 (mixture of isomers)	24.4
COCC#Cc1ccc([C@@H]2[C@@H](CO)N3CCCCN(Cc4cccnc4)C[C@H]23)cc1	3.4
O=C(Nc1cccc(F)c1)N1C[C@H]2[C@@H](c3ccccc31)[C@@H](CO)N2C(=O)c1ccccc1F	17.3
C[C@@H]1CN([C@@H](C)CO)C(=O)c2cccc(NC(=O)NC3CCCCC3)c2O[C@@H]1CN(C)S(=O)(=O)c1ccc(Cl)cc1	-9.8
C[C@@H]1CN([C@H](C)CO)C(=O)c2cc(NC(=O)Nc3cccc4ccccc34)ccc2O[C@@H]1CN(C)Cc1ccc(C(=O)Nc2ccccc2N)cc1	-4.7
CN(C)CC#Cc1ccc([C@@H]2[C@@H](CO)N3CCCCN(C(=O)CN(C)C)C[C@H]23)cc1	32.4
C[C@@H]1CN([C@H](C)CO)C(=O)c2cccc(NC(=O)c3nc4ccccc4s3)c2O[C@H]1CN(C)C(=O)Nc1ccc(C(F)(F)F)cc1	-14.8
C[C@@H](O)C#Cc1ccc([C@@H]2[C@@H](CO)N3CCCCN(C(=O)c4cccc(F)c4)C[C@@H]23)cc1	-15.4
CN1c2ccc(-c3ccccc3)cc2[C@H]2[C@H](CCN2C(=O)c2cccc(F)c2)[C@@H]1CO	7.8
O=C(C[C@H]1CC[C@@H]2[C@H](COC[C@@H](O)CN2C(=O)Nc2cccc(F)c2)O1)NCc1ccccc1F	6.6
CCCNC(=O)NC[C@H]1[C@@H](c2ccc(C3=CCCCC3)cc2)[C@H](CO)N1C(C)=O	7.1
CC(C)NC(=O)Nc1cccc2c1O[C@@H](CN(C)S(=O)(=O)c1ccccc1)[C@H](C)CN([C@H](C)CO)C2=O	1.1
C[C@@H]1CN([C@H](C)CO)C(=O)c2cccc(NC(=O)Nc3ccccc3)c2O[C@H]1CN(C)S(=O)(=O)c1ccc(Cl)cc1	7.9
C[C@H](CO)N1C[C@H](C)[C@H](CN(C)Cc2cccc(C(=O)O)c2)OCc2cnnn2CCCC1=O	-0.6
C[C@@H]1CN([C@H](C)CO)C(=O)c2cccc(NC(=O)C3CCCCC3)c2O[C@H]1CN(C)C(=O)Nc1ccc2c(c1)OCO2	1.1
CO[C@@H]1CN(C)C(=O)c2ccc(NC(=O)Nc3cccc(F)c3)cc2OC[C@H](C)N(C(=O)Nc2c(C)noc2C)C[C@@H]1C	23.6
C[C@H]1CN([C@@H](C)CO)C(=O)CCCn2nncc2CO[C@@H]1CN(C)S(=O)(=O)c1ccc(Oc2ccccc2)cc1	35.2

6 entries already listed, ordered by length of the SMILES, low to high.
SMILES	Yeast UUG start
CCCNC(=O)NC[C@H]1[C@@H](c2ccc(C3=CCCCC3)cc2)[C@H](CO)N1C(C)=O	7.1
CN1c2ccc(-c3ccccc3)cc2[C@H]2[C@H](CCN2C(=O)c2cccc(F)c2)[C@@H]1CO	7.8
C[C@H](CO)N1C[C@H](C)[C@H](CN(C)Cc2cccc(C(=O)O)c2)OCc2cnnn2CCCC1=O	-0.6
CC(C)NC(=O)Nc1cccc2c1O[C@@H](CN(C)S(=O)(=O)c1ccccc1)[C@H](C)CN([C@H](C)CO)C2=O	1.1
C[C@H]1CN([C@@H](C)CO)C(=O)CCCn2nncc2CO[C@@H]1CN(C)S(=O)(=O)c1ccc(Oc2ccccc2)cc1	35.2
C[C@@H]1CN([C@H](C)CO)C(=O)c2cccc(NC(=O)Nc3ccccc3)c2O[C@H]1CN(C)S(=O)(=O)c1ccc(Cl)cc1	7.9

Back to the main list, repeating the two entries before the break.
SMILES	Yeast UUG start
CO[C@@H]1CN(C)C(=O)c2ccc(NC(=O)Nc3cccc(F)c3)cc2OC[C@H](C)N(C(=O)Nc2c(C)noc2C)C[C@@H]1C	23.6
C[C@H]1CN([C@@H](C)CO)C(=O)CCCn2nncc2CO[C@@H]1CN(C)S(=O)(=O)c1ccc(Oc2ccccc2)cc1	35.2
CN(C[C@@H]1N[C@H](CO)[C@@H]1c1ccc(C2=CCCC2)cc1)S(C)(=O)=O	1.0
C[C@H](CO)N1C[C@H](C)[C@H](CN(C)Cc2ccc(C(F)(F)F)cc2)Oc2ccc(NS(=O)(=O)c3ccccc3)cc2CC1=O	-9.1
O=C(Nc1ccc(-c2ccccc2)cc1)[C@@H]1[C@@H](CO)[C@@H]2Cn3c(cccc3=O)[C@H]1N2Cc1ccccc1	12.1
CC(C)NC(=O)Nc1ccc2c(c1)C(=O)N([C@@H](C)CO)C[C@@H](C)[C@H](CN(C)Cc1ccc(Oc3ccccc3)cc1)O2	0.0
O=C(C1CCOCC1)N1C[C@H]2[C@@H](c3ccccc31)[C@@H](CO)N2C(=O)Cc1ccccn1	-6.7
COCC(=O)N1CC[C@@H]2[C@@H](CO)Nc3ccc(-c4ccc(C#N)cc4)cc3[C@@H]21	-1.4
CO[C@@H]1CN(C)C(=O)c2cc(NS(=O)(=O)c3ccccc3)ccc2OC[C@H](C)N(Cc2cccnc2)C[C@@H]1C	3.8
O=C(Cc1ccccc1)N1CC[C@@H]2[C@H]1c1cc(-c3ccccc3F)ccc1N[C@@H]2CO	-10.6
C[C@@H]1CN([C@H](C)CO)C(=O)CCCn2nncc2CO[C@@H]1CN(C)CC1CCCC1	-0.4
C[C@@H]1CN([C@H](C)CO)C(=O)c2cc(C#C[C@@H](C)O)cnc2O[C@H]1CN(C)CC1CCCC1	-5.9
O=C(c1ccccn1)N1C[C@H]2[C@@H](c3ccccc31)[C@@H](CO)N2C(=O)C1CCCCC1	-9.3
C[C@H](CO)N1C[C@H](C)[C@@H](CN(C)Cc2ccc(Oc3ccccc3)cc2)Oc2ccc(NS(C)(=O)=O)cc2CC1=O	14.4
C[C@H]1CN([C@@H](C)CO)C(=O)Cc2cc(NS(C)(=O)=O)ccc2O[C@H]1CN(C)Cc1ccc(Oc2ccccc2)cc1	5.9
C[C@H](CO)N1C[C@H](C)[C@@H](CN(C)C(=O)NC2CCCCC2)Oc2ccc(NC(=O)Nc3ccccc3)cc2CC1=O	20.3
O=S(=O)(c1ccc(F)cc1)N1CCCCN2[C@H](C1)[C@H](c1ccc(C#CC3CC3)cc1)[C@@H]2CO	44.2
OC[C@@H]1[C@H]2c3ccccc3NC[C@H]2N1CC1CCOCC1	-15.5
C[C@@H]1CN([C@@H](C)CO)C(=O)c2cc(NC(=O)C3CCCCC3)ccc2O[C@H]1CN(C)Cc1ccc(-c2ccccc2)cc1	4.0
O=C(Nc1ccc(F)cc1)N1CCCCN2[C@@H](CO)[C@@H](c3ccc(-c4ccccc4F)cc3)[C@@H]2C1	3.7
CO[C@@H]1CN(C)C(=O)c2ccc(NC(C)=O)cc2OC[C@H](C)N(C(=O)C2CCOCC2)C[C@H]1C	7.1
C[C@@H]1CN([C@H](C)CO)C(=O)c2cc(NC(=O)c3ccncc3)ccc2O[C@H]1CN(C)Cc1ccc(-c2ccccc2)cc1	-9.4
COCC(=O)N1C[C@@H]2[C@H](c3ccccc31)[C@H](CO)N2C(=O)NC(C)C	8.4
CCCNC(=O)[C@@H]1[C@@H](CO)[C@@H]2Cn3c(ccc(/C=C/c4ccccc4)c3=O)[C@H]1N2C(=O)c1ccccc1	13.6
Cc1noc(C)c1NC(=O)Nc1ccc2c(c1)C(=O)N([C@H](C)CO)C[C@H](C)[C@@H](CN(C)Cc1ccc(Oc3ccccc3)cc1)O2	0.9
CO[C@H]1CN(C)C(=O)c2cc(NC(=O)c3ccc(F)cc3)ccc2OC[C@H](C)N(C(C)=O)C[C@@H]1C	11.6
O=C(c1ccc(F)cc1)N1CCCCN2[C@H](C1)[C@H](c1ccc(/C=C/c3ccccc3)cc1)[C@@H]2CO	-0.7
C[C@H]1CN([C@@H](C)CO)C(=O)c2cc(NC(=O)Nc3cccc4ccccc34)ccc2O[C@H]1CN(C)S(=O)(=O)c1cccs1	-9.8
C[C@@H]1CN([C@@H](C)CO)C(=O)Cc2cc(NC(=O)c3ccncc3)ccc2O[C@@H]1CN(C)Cc1ccc(C(=O)O)cc1	-4.0
O=C(CN1CCOCC1)N1CC[C@@H]2[C@@H](CO)Nc3ccc(-c4ccccc4)cc3[C@@H]21	-6.0
C[C@H](CO)N1C[C@H](C)[C@H](CN(C)Cc2ccc(Oc3ccccc3)cc2)Oc2ccc(NS(=O)(=O)c3cccs3)cc2C1=O	27.0
CCC(=O)N(C)C[C@@H]1[C@H](c2ccc(-c3cccnc3)cc2)[C@H](CO)N1C(C)=O	9.1
C[C@@H]1CN([C@@H](C)CO)C(=O)c2cccc(NS(=O)(=O)c3ccc(Cl)cc3)c2O[C@H]1CN(C)C	-6.1
COc1ccccc1C#Cc1ccc2c(c1)[C@H]1[C@H](CCN1C(=O)c1ccc(F)cc1)[C@H](CO)N2	-12.3
CCC(=O)NC[C@@H]1[C@H](c2ccc(-c3cccc(F)c3)cc2)[C@H](CO)N1C(=O)CC	22.2
C[C@@H]1CN([C@@H](C)CO)C(=O)Cc2cc(NC(=O)NC3CCCCC3)ccc2O[C@H]1CN(C)S(C)(=O)=O	-0.7
COc1ccccc1C#Cc1ccc2c(c1)[C@H]1[C@H](CCN1C(=O)c1ccccc1)[C@H](CO)N2	-8.9
C[C@@H]1CN([C@H](C)CO)C(=O)CCCn2nncc2CO[C@@H]1CN(C)C(=O)Nc1ccc(C(F)(F)F)cc1	1.8
CO[C@H]1CN(C)C(=O)c2ccc(NS(C)(=O)=O)cc2OC[C@H](C)N(Cc2cccnc2)C[C@@H]1C	-4.7
C[C@H]1CN([C@@H](C)CO)C(=O)c2cccc(NC(=O)NC3CCCCC3)c2O[C@H]1CN(C)C(=O)Nc1ccccc1	36.2
CN1c2ccc(-c3cccc(C#N)c3)cc2[C@@H]2[C@@H](CCN2C(=O)C2CCC2)[C@@H]1CO	8.6
CO[C@@H]1CN(C)C(=O)c2ccc(NC(=O)C3CC3)cc2OC[C@H](C)N(Cc2cccnc2)C[C@@H]1C	0.6
CO[C@@H]1CN(C)C(=O)c2ccc(NC(=O)Nc3ccccc3)cc2OC[C@H](C)NC[C@H]1C	9.6
C[C@@H]1CN([C@@H](C)CO)C(=O)c2c(c3ccccc3n2C)-c2ccccc2CO[C@@H]1CN(C)CC1CC1	9.7
COc1ccc(-c2ccc([C@H]3[C@@H](CO)N4CCCCN(C(=O)NC(C)C)C[C@@H]34)cc2)cc1	-5.3
C/C=C/c1ccc([C@@H]2[C@H](CO)N(C(C)=O)[C@H]2CNC(=O)c2ccccc2)cc1	2.4
O=C(Nc1ccccc1F)N1C[C@H]2[C@@H](c3ccccc31)[C@@H](CO)N2C(=O)c1ccc(F)cc1	6.4
N#Cc1cccc(-c2ccc3c(c2)[C@@H]2[C@@H](CCN2S(=O)(=O)c2cccc(F)c2)[C@@H](CO)N3)c1	-4.1
O=C(Nc1ccccc1)N1C[C@H]2[C@@H](c3ccccc31)[C@H](CO)N2CC1CCCC1	-4.0
CCC(=O)NC[C@@H]1[C@H](c2ccc(C3=CCCC3)cc2)[C@H](CO)N1C(=O)C1CC1	-7.2
C[C@H](CO)N1C[C@H](C)[C@@H](CN(C)Cc2ccc3c(c2)OCO3)Oc2ccc(NC(=O)Cc3cn(C)c4ccccc34)cc2C1=O	6.7
CCCNC(=O)N1C[C@@H]2[C@H](c3ccccc31)[C@@H](CO)N2Cc1cccc(OC)c1	-6.1
The results go on.
SMILES	Yeast UUG start
COc1cccc(-c2ccc([C@H]3[C@H]4CN(S(=O)(=O)c5cccs5)CCCCN4[C@H]3CO)cc2)c1	0.3
CCCNC(=O)N1C[C@H](O)COC[C@H]2O[C@@H](CC(=O)N3CCOCC3)CC[C@@H]21	-13.9
COc1cccc(C(=O)Nc2ccc3c(c2)C(=O)N(C)C[C@@H](OC)[C@@H](C)CN(CC2CC2)[C@H](C)CO3)c1	2.2
OC[C@@H]1[C@H](c2ccc(C#Cc3ccccc3F)cc2)[C@H]2CN(CC3CCOCC3)CCCCN12	5.1
CC(C)NC(=O)Nc1ccc2c(c1)CC(=O)N([C@@H](C)CO)C[C@@H](C)[C@H](CN(C)S(=O)(=O)c1ccc(F)cc1)O2	3.9
